Assay outcomes from PubChem BioAssay.
Tgondii IFNg: blocks Toxoplasma gondii growth in the presence of IFN-gamma | Toxoplasma gondii growth in IFN-gamma-treated host cells; hits give low values; reference of the scale not given here | activity change, negative = inhibition, %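 (about 20 µM by stock and volumes)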 | hit rate 3.8% among 69,000 | AID 1259416;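 active = below -70%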;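 also: host cells are HeLa cells infected with Toxoplasma gondii; parasite growth read as luciferase light; one replicate is shown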
An asterisk follows results filed as active; i = inactive. An excerpt, so the mix of outcomes need not match the whole.

nr	canonical_smiles	Tgondii IFNg
1	COCC(=O)N1[C@@H](C#N)[C@@H](c2ccc(C#Cc3ccccc3F)cc2)[C@@H]1CO	10.2
2	N#C[C@H]1N[C@H](CO)[C@@H]1c1ccc(C2=CCCC2)cc1	0.6
3	O=C(CN1C(=O)CCc2cc(S(=O)(=O)N3CCCCC3)ccc21)N1CCCCC1	-7.9
4	COCC1CC2(CCN(C(=O)Cc3ccc(OC)cc3)CC2)CO1 (stereo not given)	-4.5
5	C/C=C/c1cnc2c(c1)C(=O)N([C@H](C)CO)C[C@@H](C)[C@H](CN(C)C(=O)Nc1cccc(OC)c1)O2	81.3
6	CN1C[C@@H]2CCN(C(=O)Nc3cccc(Cl)c3)CC[C@H]2S1(=O)=O	-2.7
7	CCn1c(C2CCN(C(=O)COc3ccc(Cl)cc3)CC2)nn(C)c1=O	3.2
8	CC(=O)c1ccccc1-c1c(C)c2ccccc2[nH]c1=O	28.5
9	COC(=O)C(C)Nc1n[nH]c(=O)[nH]c1=O (stereo not given)	28.6
10	Cc1ccc(C)c(N2CCN(C(=O)Cn3ncc4c(N5CCCCC5)ncnc43)CC2)c1	-51.5
11	CCn1c(CCNC(=O)Cc2c(F)cccc2Cl)nnc1SC	-2.7
12	Cn1cnnc1C1CCN(Cc2cc3cc4c(cc3[nH]c2=O)OCO4)CC1	36.1
13	O=C1CCCCn2nncc2COC[C@H](Cc2ccccc2)N1	-35.1
14	Nc1cccc(-c2nc3ccccc3[nH]2)c1	51.9
15	O=C(O)c1ccccc1C(=O)N1CCN(c2nc(-c3ccccc3)ns2)CC1	-37.6
16	CCN1c2ccc(C)cc2C(=O)NC12CCN(C(=O)c1ccc(OC)c(OC)c1)CC2	3.1
17	O=C(NCCc1csc(-c2cccc(F)c2)n1)c1ccc(Br)o1	-60.8
18	CCN(CC)c1ccc2ccc(C(=O)N3CCC(N(C)C)C3)cn12 (stereo not given)	97.5
19	Fc1cccnc1OCC12CCCOC1CCN(Cc1ccncc1)C2 (stereo not given)	2.6
20	CCCCCCCCCc1ccc(OCCOCCOCCOCCOCCOCCOCCOCCOCCO)cc1	-80.7*
21	CC1(C(=O)NCc2ccc(F)cc2F)CCN(C(=O)c2ccco2)CC1	8.3
22	Cc1oc(-c2ccc(NC(=O)c3ccccc3Br)cc2)nc1Cn1cccn1	-93.7*
23	FC(F)Oc1cccc(CNC2CCC3(CCNCC3)CC2)c1	-23.5
24	CCc1nccc(-c2nccn2-c2ccc(-c3ccn[nH]3)cc2)n1	-3.4
25	Cc1cc(-n2cnnc2CCn2cccn2)n(C)n1	7.7
26	Cc1nc(-c2cc(C(=O)Cc3cccnc3)c3ccccn23)cn1C(C)C	98.4
27	N#C[C@H]1[C@@H](c2ccccc2)[C@@H](CO)N1C(=O)c1cc(Cl)cc(Cl)c1	-13.9
28	Cc1ccccc1OCC(O)CN1CCN(C)CC1 (stereo not given)	0.7
29	C[C@H](CO)N1C[C@H](C)[C@H](CN(C)Cc2cccnc2)Oc2ncc(-c3ccc(C#N)cc3)cc2C1=O	77.8
30	CCc1nc(Cn2ccnc2-c2ccc3c(c2)CCN3C(C)C)no1	-31.2
31	Cc1ccccc1-c1ncc(CNCCSc2nnnn2C)s1	5.5
32	C[C@H](CO)N1C[C@H](C)[C@@H](CN(C)S(C)(=O)=O)Oc2ccc(NC(=O)Nc3ccc(F)cc3)cc2CC1=O	-7.6
33	CCC(=O)Nc1cccc(OCC(=O)N2CCN(c3ncccn3)CC2)c1	3.1
34	C=CCn1nc(C(=O)O)c2c1CCC(N1CC(Oc3cccc(C)c3)C1)C2 (stereo not given)	-2.6
35	CC(=O)N1C2CCN(Cc3nccn3C)CC2C[C@H]1CN(C)C (stereo not given in full)	34.6
36	CC1CCC(NC(=O)CN2C(=O)CCc3cc(S(=O)(=O)N4CCCC4)ccc32)CC1 (stereo not given)	25.1
37	Cc1ncc2c(c1CNC(=O)/C=C/c1cccs1)CCN(C(=O)c1ccc(-n3cccn3)cc1)C2	-20.3
38	CC(CCNC(=O)Cn1c2ccccc2c2cnn(C)c(=O)c21)N1CCCC1 (stereo not given)	19.8
39	CC(C)CN1C(=O)CO[C@H]2CN(c3ccccn3)C[C@@H]21	4.0
40	COc1ccc2c(CC(=O)NCC3CCC(C(=O)O)CC3)cc(=O)oc2c1 (stereo not given)	-12.0
41	COCC(=O)N1CCC(c2nc3ccc(-c4ccncc4)cn3n2)CC1	0.1
42	CN(C)CCNC(=O)Cn1ncc2c(N3CCN(c4ccccn4)CC3)ncnc21	-10.4
43	COc1ccc(-c2nc(N(CCN(C)C)Cc3ccccc3)c3ccccc3n2)cc1	-52.4
44	Cc1cnc(-c2ccccc2CO)c(Cl)c1	-45.9
45	COc1ccc(C(=O)C2CCN(Cc3nnnn3Cc3cccs3)CC2)cc1	-6.8
46	CC(CNc1ccnc(C(=O)NCc2cccnc2)c1)c1ccccc1 (stereo not given)	-5.5
47	COc1ccc(CN2CCC(Cc3nnc(SC)n3C)CC2)cn1	-0.1
48	Cc1nc(NC(C)C)nc2c1CN(Cc1ccc(F)cc1)CC2	-24.6
49	COc1ccc(NC(=O)N(C)C[C@H]2Oc3c(NC(=O)CCCCCC(=O)Nc4ccccc4N)cccc3C(=O)N([C@@H](C)CO)C[C@@H]2C)cc1	10.3
50	CCC[C@@]1(CCc2ccccc2)CC(=O)C([C@H](CC)c2cccc(NS(=O)(=O)c3ccc(C(F)(F)F)cn3)c2)C(=O)O1 (stereo not given in full)	-69.1
51	c1cnc2c(c1)CN(CC1CCOC1)CCN2CCn1cccn1 (stereo not given)	-24.6
52	CCCn1c(=O)c2[nH]c(-c3ccc(OCC(=O)Nc4ccc(C#N)cc4)cc3)nc2n(CCC)c1=O	15.1
53	CC(C)CC(=O)Nc1ccc(-c2nc(-c3ccccc3)co2)cc1	204.2
54	COc1cccc(-n2c(=O)c(C(=O)Nc3ccc(C)cc3C)c(O)c3cccnc32)c1	68.5
55	CN(C)CCOCc1nnn2c1CN(Cc1cccs1)CCC2	-34.5
56	CCOC(=O)c1nc(NCCCN2CCC(Cc3ccccc3)CC2)c2ccccc2n1	-52.3
57	CC(=O)N1CCc2c(nc(C)nc2NCCCn2ccc3ccccc32)C1	-7.5
58	Cc1ccc(S(=O)(=O)N(CC(=O)N2CCC(C(N)=O)CC2)c2ccccc2F)cc1	10.5
59	COc1ccc(-n2c(=O)c(C(=O)Nc3ccccc3Cl)c(O)c3cccnc32)cc1	45.1
60	CC1CCCCN1C(=O)c1ncn2c1CN(CC1CC1)S(=O)(=O)c1ccccc1-2 (stereo not given)	-32.0

Next records follow.
nr	canonical_smiles	Tgondii IFNg
61	CN1C(=O)CC(c2ccccc2)C12CCN(C(=O)c1cscn1)CC2 (stereo not given)	5.7
62	CN1CC2(CCN(C(=O)c3cnc(Nc4ccccc4)nc3)C2)OC1=O (stereo not given)	-68.2
63	Cc1nc(OCC(=O)Nc2cccc(F)c2)c2ccccc2n1	-19.0
64	CC(C)NC(=O)CN1C(=O)CCc2cc(S(=O)(=O)N3CCCCC3C)ccc21 (stereo not given)	36.0
65	COc1ccc2c3c([nH]c2c1)[C@@H](CO)N(C(C)=O)CC31CN(C(=O)CN2CCOCC2)C1	212.0
66	O=C(Nc1ccc(N2CCOCC2)cc1)c1ccc(-c2ccc(F)cc2)o1	-56.9
67	Cc1ccc(-c2cc(N)c(=O)n(CC(=O)Nc3ccc4c(c3)OCO4)n2)o1	-24.2
68	CCC(=O)Nc1ccc2c(c1)OC[C@@H](C)N(Cc1ccccc1)C[C@H](C)[C@H](OC)CN(C)C2=O	-32.0
69	CCCc1ccc(NC(=S)OC)cc1	120.0
70	COc1cccc(-n2c(=O)c(C(=O)Nc3ccc(C)c(F)c3)c(O)c3cccnc32)c1	-14.5
71	CCCOC(=O)N1CCn2nc(-c3nc4ccccc4n3C)cc2C1	144.4
72	CC(=O)CC1N(C2CCCCCC2)C(=O)C2N(C3CCCCCC3)C(=O)C3CC(=O)OC312 (stereo not given)	73.5
73	O=C(CSC1CCS(=O)(=O)C1)NCC(=O)c1ccccc1 (stereo not given)	-21.8
74	CC(C)C[C@H]1CN(C(=O)c2coc3ccccc23)CC[C@@]1(C)O	-7.7
75	CC1Cc2cc(-c3csc(NC(=O)c4cc5c([nH]c4=O)CCC5)n3)ccc2O1 (stereo not given)	0.0
76	Cn1ccnc1-c1nc(NCc2ccccn2)ncc1-c1cccc(Cl)c1	-24.6
77	CCSc1nc(CC(=O)NC2Cc3ccccc3C2)cs1	13.1
78	CCOc1ccc(CC(=O)N2CCC3(CC2)Nc2cc(OC)ccc2-n2cccc23)cc1OCC	-2.6
79	CN(C)c1ccc(-n2nnnc2SCC(=O)c2cc3ccccc3o2)cc1	-18.3
80	Cc1nnc([C@@H]2CC[C@H]3[C@H](CCN3Cc3sccc3C)O2)o1	7.9
81	CC(C)CC(NC(=O)c1cnn(C)c1)c1nnc2n1CCNCC2 (stereo not given)	2.3
82	O=C(c1ccoc1)N1CCn2cc(CNc3ccccn3)nc2C1	0.2
83	Cc1nc(C)n(CC(=O)N2CCC(C3CCCCN(CCc4ccccc4)C3=O)CC2)n1 (stereo not given)	2.3
84	CCOC(=O)c1noc(Oc2ccc(Cl)cc2Cl)n1	-37.7
85	COc1ccccc1NC(=O)C(=O)NCCc1sc(-c2ccc(F)cc2)nc1C	-6.0
86	O=C(c1ccc[nH]1)N1CCC2(CC1)Cc1ccccc1CNC2=O	-8.6
87	COc1ccc2c(c1)NC1(CCN(C(=O)c3ccc(Br)o3)CC1)c1cccn1-2	-78.6*
88	O=C(COc1ccc(Cl)cc1)N1CCC2(CC1)Nc1ccc(Cl)cc1-n1cccc12	70.1
89	CCOC(=O)Cn1c(C)cc(=O)c2ccccc21	-8.8
90	Cc1nn(CC(=O)NCCN2CCCCC2C)c(=O)c2nc(-c3ccccc3)sc12 (stereo not given)	24.7
91	c1ccc(-c2nc3ccccc3nc2-c2cccs2)cc1	-6.5
92	COC(=O)c1ccccc1NC(=O)c1ccc(COc2ccc3c(c2)CCC3)cc1	32.3
93	CN(C)C(=O)c1cncc(N2CCCC(N(C)Cc3ccccc3)C2)n1 (stereo not given)	6.8
94	O=C(CCC1N=C2c3ccccc3N=C(SCc3cccc(F)c3)N2C1=O)NCc1ccccc1 (stereo not given)	6.0
95	Cc1nc(C)c(S(=O)(=O)NCc2ccc(N3CCN(C)CC3)cc2)s1	5.5
96	CCn1ncnc1C(C)NC(=O)c1cc2ccccc2oc1=O (stereo not given)	3.3
97	CCN(Cc1noc(C)n1)C(=O)c1cc(CC(C)C)nn1C	-45.0
98	C[C@@H]1CCCCO[C@@H](CN(C)C(=O)Cc2ccccc2)[C@H](C)CN([C@H](C)CO)C(=O)c2cc(NS(C)(=O)=O)ccc2O1	137.1
99	S=C1SCN(Cc2cccs2)CN1Cc1cccs1	22.5
100	COC1COC2(CCN(C(=O)C3CCCO3)C2)C1 (stereo not given)	20.8
101	O=C(O)COc1nsnc1N1CCOCC1	160.4
102	CCN1C(=O)CCc2cc(NC(=O)c3ccc(Br)o3)ccc21	37.3
103	COc1cccc(CC2CN(c3ccc(C)nn3)CCO2)c1 (stereo not given)	5.6
104	O=C(NC1CCS(=O)(=O)C1)c1ccc(-c2ccccn2)s1 (stereo not given)	17.3
105	COCC(=O)N(Cc1cc2cccc(C)c2nc1Cl)C1CCCCC1	-49.0
106	COc1ccc(CN2CC[C@@H]3[C@@H]2CCN3C(=O)c2cscn2)cc1	-19.6
107	CCOC(=O)c1noc2ncn(Cc3nc(-c4ccccc4C)oc3C)c(=O)c12	29.5
108	CN(C)S(=O)(=O)c1ccc2c(c1)cc(C(=O)NCc1cccnc1)n2Cc1ccccc1	144.0
109	O=C1CCCN1Cc1ncn2c1CN(S(=O)(=O)c1cccc(F)c1)CCC2	3.5
110	CCn1cnnc1CCNC(=O)C(C)(C)c1ccccc1	15.6
111	COC1CCC[C@@H]2CN(c3ncc(C)cn3)C[C@@H]12 (stereo not given in full)	-34.7
112	Cc1cccc(CNS(=O)(=O)c2cc3c4c(c2)CCN4C(=O)CC3)c1	-4.6
113	COc1ccc(-c2nc(C)c(CCNS(=O)(=O)c3ccc(F)cc3)s2)cc1	i
114	Cc1nc2sc(C(=O)N3CCCC(N(C)C)CC3)c(C)c2c(=O)[nH]1 (stereo not given)	-3.0
115	COc1cc(C(=O)NCCc2sc(-c3ccc(Cl)cc3)nc2C)cc(OC)c1OC	-56.2
116	Cc1nccn1Cc1ccccc1C(=O)NC(c1ccc(F)cc1)C(C)C (stereo not given)	7.4
117	COc1ccc(C)cc1NC(=O)c1nc(Nc2ccc(C)cc2)c2ccccc2n1	-12.5
118	CN(C)c1nc(N2CCOCC2)nc2c1CCN(C(=O)C1CC1)CC2	13.6
119	N#C[C@H]1[C@H](c2ccccc2-c2ccccc2F)[C@@H](CO)N1C(=O)Cc1ccccc1	-48.8
120	Cc1ccc(C(C)Cc2c(-c3ccccc3)ncn2CCCO)o1 (stereo not given)	-4.4
121	Cc1nc(-c2ccc(CO)s2)cs1	9.9
122	O=C(Nc1ccc(-c2nc(-c3ccccc3)co2)cc1)c1ccccc1	44.6
123	CCn1cc2c(n1)C(COC)CN(CC1CCOCC1)C2 (stereo not given)	96.3
